From PubChem BioAssay
Env fusion inh = HIV envelope-mediated fusion inhibition. AID 651610. HeLa-JRFL Env/CEM21 cell fusion, luciferase. inhibition, % at 12.3 µM. actives 1.1% (n = 360,000);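 active = mean replicate inhibition score of at least 50 and every replicate individually at or above 50; inconclusive = only one of the two criteria met; inactive = mean below 50 and not all replicates reaching 50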;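 also: 0% = plate neutral controls and 100% = maraviroc near 300 nM; one replicate is shown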
The depositor's hits bear a star; ? = inconclusive; [ ] = remark or other dose. Not all compounds are listed, so the mix of outcomes need not match the whole.

SMILES	Env fusion inh
C[C@H](CO)N1C[C@H](C)[C@H](CN(C)Cc2ccc(C(=O)Nc3ccccc3N)cc2)Oc2ccc(NC(=O)Nc3ccc(F)cc3)cc2CC1=O	-53[16.7 µM]
CNC[C@@H]1Oc2c(NS(=O)(=O)c3ccc(OC)cc3)cccc2C(=O)N([C@@H](C)CO)C[C@@H]1C	-6[16.7 µM]
C/C=C/c1ccc2c(c1)O[C@@H](CN(C)C(=O)Cc1cccnc1)[C@@H](C)CN([C@H](C)CO)S2(=O)=O	11[16.7 µM]
CN(C(=O)c1cccc(NC(=O)Cc2ccc(NC(=O)C3CCCN(C(=O)c4ccccc4)C3)cc2)c1)C1CC1 (stereo not given)	-12
COC(=O)C1=C(C)N(Cc2cccc(C(F)(F)F)c2)C(=NCc2ccc(C(F)(F)F)cc2)NC1c1ccc(Cl)cc1 (stereo not given)	?
O=C(C[C@@H]1CC[C@H](NC(=O)c2cccc(F)c2)[C@H](CO)O1)NCCN1CCCC1	2[16.7 µM]
CN(C)C(=O)c1ccc(-c2cccc(-c3nc(C(=O)NC4CCCC4)cc4c3[C@H](CCO)N([S@@](=O)C(C)(C)C)C4)c2)cc1	-7[16.7 µM]
C[C@@H]1CN([C@H](C)CO)C(=O)c2cccc(NS(=O)(=O)c3ccc(Cl)cc3)c2O[C@H]1CN(C)C(=O)Nc1ccc(F)cc1	21[16.7 µM]
CC(C)C#Cc1ccc2c(c1)O[C@@H](CN(C)C(=O)C1CCC1)[C@@H](C)CN([C@@H](C)CO)S2(=O)=O	25[16.7 µM]
O=C(C[C@H]1C=C[C@@H](NC(=O)C2CC2)[C@@H](CO)O1)NC1CCC1	10[16.7 µM]
C[C@]12Cc3ccccc3C1CC1=N[C@@H](c3ccc(C(F)(F)F)cc3)O[C@@]13C[C@@H]2C(=O)N3C1CCN(Cc2ccccc2)CC1 (stereo not given in full)	8
CCC(=O)N1CC2(CCN(C(C)=O)CC2)c2c([nH]c3cc(OC)ccc23)[C@@H]1CO	-9[16.7 µM]
C[C@H]1CN([C@@H](C)CO)C(=O)c2ccccc2-c2ccccc2CO[C@H]1CN(C)C(=O)Nc1cccc(C(F)(F)F)c1	-1[16.7 µM]
C[C@H](CO)N1C[C@H](C)[C@H](CN(C)C(=O)[C@@H]2CCCN2C)OCc2ccccc2-c2c(n(C)c3ccccc23)C1=O	2[16.7 µM]
Nc1nc2ncccc2cc1C(=O)NC1CC1	-10

Three entries from above, arranged by SMILES length, smallest number first.
SMILES	Env fusion inh
CNC[C@@H]1Oc2c(NS(=O)(=O)c3ccc(OC)cc3)cccc2C(=O)N([C@@H](C)CO)C[C@@H]1C	-6[16.7 µM]
C[C@H]1CN([C@@H](C)CO)C(=O)c2ccccc2-c2ccccc2CO[C@H]1CN(C)C(=O)Nc1cccc(C(F)(F)F)c1	-1[16.7 µM]
C[C@H](CO)N1C[C@H](C)[C@H](CN(C)Cc2ccc(C(=O)Nc3ccccc3N)cc2)Oc2ccc(NC(=O)Nc3ccc(F)cc3)cc2CC1=O	-53[16.7 µM]

Later entries:
SMILES	Env fusion inh
O=C(C1CC1)N1CC[C@@H]2[C@H](CO)Nc3ccc(C4=CCCCC4)cc3[C@@H]21	30[16.7 µM]
COc1ccc2c3c([nH]c2c1)[C@H](CO)N(C(=O)c1ccccc1)CC31CN(C(=O)Nc2cccc(F)c2)C1	13[16.7 µM]
COc1ccc(CN(C)C[C@@H]2Oc3ccc(NC(=O)NC(C)C)cc3C(=O)N([C@@H](C)CO)C[C@H]2C)cc1	13[16.7 µM]
COC(=O)C1=C(C)N(Cc2cccc(C(F)(F)F)c2)C(=NCC2CC2)NC1c1cccc(C(F)(F)F)c1 (stereo not given)	7
CN1C(=O)c2cc(NC(=O)c3ccc(F)c(F)c3)ccc2OC[C@@H]2O[C@H](CC(=O)N3CCOCC3)CC[C@H]21	4[16.7 µM]
COCCNC(=O)C[C@H]1CC[C@H]2[C@@H](COc3ccc(NC(=O)Cc4ccccc4)cc3C(=O)N2C)O1	-1[16.7 µM]
COC(=O)C1=C(C)N(Cc2ccccc2C(F)(F)F)C(=NCc2ccc(OC)cc2)NC1c1ccccc1 (stereo not given)	-256
O=C(Cc1c[nH]c2ccccc12)Nc1ccc(Nc2cccnc2)c(-c2ccc(Oc3ccccc3)cc2)c1	10
Cc1cc(N2CCN(C(=O)OC(C)(C)C)C[C@@H]2C)ccc1N1CCS(=O)(=O)CC1	7
CC(C)NC(=O)Nc1ccc2c(c1)C(=O)N([C@H](C)CO)C[C@@H](C)[C@H](CN(C)C(=O)c1ccncc1)OCCCC[C@H](C)O2	12[16.7 µM]
COc1ccccc1C#Cc1ccc([C@@H]2[C@@H](C#N)N(C(=O)C3CCCCC3)[C@@H]2CO)cc1	20[16.7 µM]
C[C@H]1CCCCO[C@H](CN(C)C(=O)Nc2ccccc2)[C@@H](C)CN([C@@H](C)CO)C(=O)c2cc(NC(=O)Nc3ccccc3)ccc2O1	16[16.7 µM]
C[C@@H]1CN([C@@H](C)CO)C(=O)c2cc(NS(=O)(=O)c3ccccc3)ccc2O[C@H]1CN(C)S(=O)(=O)c1ccc(F)cc1	-15[16.7 µM]
C[C@H]1CCCCO[C@@H](CN(C)C(=O)c2ccccc2)[C@@H](C)CN([C@@H](C)CO)C(=O)c2cc(NC(=O)c3ccccc3)ccc2O1	3[16.7 µM]
CCCNC(=O)N1[C@H](C(=O)N2CCCCC2)[C@@H](CO)[C@@H]2Cn3c(ccc(-c4ccc(F)cc4)c3=O)[C@@H]21	3[16.7 µM]

3 compounds out of the list above, arranged by the number in Env fusion inh, falling:
SMILES	Env fusion inh
O=C(Cc1c[nH]c2ccccc12)Nc1ccc(Nc2cccnc2)c(-c2ccc(Oc3ccccc3)cc2)c1	10
Cc1cc(N2CCN(C(=O)OC(C)(C)C)C[C@@H]2C)ccc1N1CCS(=O)(=O)CC1	7
COC(=O)C1=C(C)N(Cc2ccccc2C(F)(F)F)C(=NCc2ccc(OC)cc2)NC1c1ccccc1 (stereo not given)	-256

Other compounds follow.
SMILES	Env fusion inh
CO[C@@H]1CN(C)C(=O)c2ccc(NC(=O)Nc3ccccc3F)cc2OC[C@H](C)N(CC2CC2)C[C@@H]1C	-1[16.7 µM]
CC(C)CC#Cc1ccc2c(c1)O[C@@H](CN(C)C(=O)C1CC1)[C@H](C)CN([C@@H](C)CO)S2(=O)=O	25[16.7 µM]
CO[C@H]1CN(C)C(=O)c2ccc(NC(=O)C3CCOCC3)cc2OC[C@H](C)NC[C@H]1C	-2[16.7 µM]
CO[C@H]1CC[C@H]2CCOc3c(C#N)cccc3C(=O)N(C)CCCC(=O)N(C)C[C@H]1O2	17[16.7 µM]
CO[C@H]1CN(C)C(=O)c2cc(NC(=O)c3cc(C)on3)ccc2OC[C@@H](C)NC[C@@H]1C	-128[16.7 µM]
CCOC(=O)/C(=C\Nc1cccc(OCc2ccccc2)c1)NC(=O)c1ccccc1	0
Cc1ccccc1S(=O)(=O)N1C[C@@H](O)COC[C@H]2O[C@H](CC(=O)NCCc3ccccc3)CC[C@@H]21	-4[16.7 µM]
O=C(C[C@H]1CC[C@@H]2[C@H](COC[C@@H](O)CN2CCC(F)(F)F)O1)NCC1CCCCC1	0[16.7 µM]
O=C(Nc1cccc(F)c1)N[C@H]1CC[C@@H](CCNS(=O)(=O)c2cccc(Cl)c2)O[C@H]1CO	96*[16.7 µM]
CC(C)NC(=O)Nc1ccc2c(c1)C(=O)N([C@H](C)CO)C[C@H](C)[C@H](CN(C)C(=O)Nc1ccccc1)OCCCC[C@H](C)O2	-7[16.7 µM]
COc1ccc(NC(=O)N(C)C[C@@H]2Oc3c(NC(=O)NC4CCCCC4)cccc3C(=O)N([C@H](C)CO)C[C@H]2C)cc1	-11[16.7 µM]
C[C@H](NC(=O)C[C@H]1CC[C@@H]2[C@H](COC[C@H](O)CN2C(=O)Nc2cccc(Cl)c2)O1)c1ccccc1	-9[16.7 µM]
O=C(NCc1ccc(F)cc1)[C@@H]1[C@@H](CO)[C@@H]2Cn3c(cccc3=O)[C@@H]2N1C(=O)c1cccnc1	6[16.7 µM]
O=C(NC[C@H]1CC[C@@H]2[C@@H](CN2Cc2ccc(Oc3ccccc3)cc2)O1)C1CCOCC1	-10[16.7 µM]
COc1ccc(NC(=O)N(C)C[C@@H]2Oc3c(NC(=O)NC4CCCCC4)cccc3C(=O)N([C@@H](C)CO)C[C@@H]2C)cc1	-5[16.7 µM]
CN1C(=O)c2cc(NC(=O)Nc3ccccc3Cl)ccc2OC[C@H]2O[C@@H](CC(=O)NCCCN3CCOCC3)CC[C@@H]21	-369[16.7 µM]
F[B-](F)(F)COCc1ccccc1C#Cc1ccccc1	9
O=C(N[C@H](C(=O)N1CCC[C@H]1C(=O)NCCc1ccccc1Cl)C1CCCCC1)C1CC1	-12
O=C(C[C@@H]1CC[C@H]2[C@@H](COC[C@H](O)CN2Cc2ccc(Oc3ccccc3)cc2)O1)Nc1nccs1	48[16.7 µM]
CCCN1C(=O)c2[nH]nc(-c3ccccc3)c2C1c1ccc(Br)cc1 (stereo not given)	13
C#CCNc1cccc2c1S(=O)(=O)N[C@H](C)CO2	23
COc1ccc(CN(C)C[C@@H]2OCCCC[C@@H](C)Oc3ccc(NC(=O)C4CCCCC4)cc3C(=O)N([C@@H](C)CO)C[C@H]2C)cc1	-8[16.7 µM]
C[C@@H]1CN([C@H](C)CO)C(=O)Cc2cc(NS(=O)(=O)c3cn(C)cn3)ccc2O[C@H]1CN(C)C(=O)Nc1ccc(C(F)(F)F)cc1	0[16.7 µM]
COc1cc(C(=O)N2CCC(N3CCN(C)CC3)CC2)ccc1Nc1ncc2c(n1)N(C)c1ccccc1C(=O)N2C	-20
O=C1[C@@H]2[C@H](C(=O)N1c1ccccc1)[C@@]13COC[C@H](c4ccccc4)N1C(=O)[C@]2(C(=O)NCc1ccccc1)O3	-9[16.7 µM]
O=C(Cc1ccncc1)NCC[C@H]1CC[C@@H](NC(=O)C2CCC2)[C@@H](CO)O1	-7[16.7 µM]
CC(C)NC(=O)Nc1ccc2c(c1)C(=O)N([C@@H](C)CO)C[C@H](C)[C@H](CN(C)C)OCCCC[C@H](C)O2	-8[16.7 µM]
C=CCCC1CN(Cc2ccc(OC)cc2)S(=O)(=O)c2c(Oc3cc(C)c(C)c(C)c3)cccc2O1 (stereo not given)	4
CO[C@@H]1CN(C)C(=O)c2cc(NC(=O)Nc3cccc(Cl)c3)ccc2OC[C@@H](C)NC[C@@H]1C	0[16.7 µM]
CC(C)OC(=O)N(C)C[C@@H]1OCc2cn(nn2)CCCC(=O)N([C@H](C)CO)C[C@@H]1C	6[16.7 µM]
CO[C@@H]1CC[C@@H]2CCN(C)C(=O)C[C@H](c3ccccc3)CN(C)C(=O)c3cccc(C#N)c3OC[C@H]1O2	4[16.7 µM]
C[C@H]1CN([C@@H](C)CO)C(=O)c2cc(NC(=O)c3ccncc3)ccc2O[C@H]1CN(C)Cc1ccc2c(c1)OCO2	-4[16.7 µM]
Cc1ccc(S(=O)(=O)Nc2ccc3c(c2)C(=O)N([C@H](C)CO)C[C@H](C)[C@H](CN(C)S(=O)(=O)c2ccc(F)cc2)O3)cc1	34[16.7 µM]
CO[C@H]1CN(C)C(=O)c2cccc(C#N)c2OCC[C@@H]2CC[C@@H](OC)[C@@H](CN(C)C(=O)[C@@H]1C)O2	-18[16.7 µM]
Cc1noc(C)c1NC(=O)Nc1cccc2c1O[C@@H](CN(C)Cc1ccncc1)[C@@H](C)CN([C@@H](C)CO)C2=O	-7[16.7 µM]
COC(=O)C[C@@H]1CC[C@@H]2[C@@H](COc3ccc(NS(=O)(=O)c4ccc(F)cc4)cc3C(=O)N2C)O1	0[16.7 µM]
C[C@H](CO)N1C[C@H](C)[C@H](CN(C)CC2CC2)OCCCC[C@H](C)Oc2ccc(NS(=O)(=O)c3ccccc3)cc2C1=O	2[16.7 µM]
CCCCc1c(-c2ccccc2OC)ncn1Cc1ccc([N+](=O)[O-])cc1	9
O=C(C[C@H]1CC[C@@H]2[C@H](COC[C@H](O)CN2C(=O)c2ccc(F)cc2)O1)N1CCCCC1	1[16.7 µM]
O=C(NC[C@H]1CC[C@@H]2[C@@H](CN2Cc2cc(-c3ccccc3)on2)O1)c1ccc2c(c1)OCO2	-57[16.7 µM]
O=C(N[C@@H](Cc1cccnc1)C(=O)N1CCC[C@H]1C(=O)NCCc1ccccc1Cl)c1ccc(Cl)cc1Cl	-6
O=C(NCCCN1CCOCC1)[C@@H]1[C@@H](CO)[C@@H]2Cn3c(ccc(C4=CCCCC4)c3=O)[C@H]1N2	-4[16.7 µM]
CCC(=O)N1CC2(CCN(C(=O)Nc3ccccc3F)CC2)c2c([nH]c3cc(OC)ccc23)[C@@H]1CO	9[16.7 µM]
O=C(NC[C@@H]1CC[C@@H]2[C@@H](CN2Cc2ccc(Oc3ccccc3)cc2)O1)C1CCOCC1	-14[16.7 µM]
CCCN(C)C[C@H]1Oc2cc(-c3cncnc3)ccc2S(=O)(=O)N([C@@H](C)CO)C[C@H]1C	0[16.7 µM]
C[C@@H]1CN([C@@H](C)CO)C(=O)CCCn2cc(nn2)CO[C@@H]1CN(C)Cc1ccccc1	-9[16.7 µM]
COc1ccc2c3c([nH]c2c1)[C@@H](CO)N(CC1CCOCC1)CC31CN(C(=O)C2CC2)C1	0[16.7 µM]
C[C@H](CO)N1C[C@H](C)[C@@H](CN(C)Cc2ccc(Cl)c(Cl)c2)Oc2ccc(NS(C)(=O)=O)cc2CC1=O	8[16.7 µM]
CC(C)C[C@H](NC(=O)N1CCOCC1)C(=O)N1CCC[C@H]1C(=O)NCc1ccccc1	-2
C[C@H](CO)N1C[C@H](C)[C@@H](CN(C)C(=O)Cc2ccccc2)OCc2ccccc2-c2ccccc2C1=O	41[16.7 µM]
COc1ccc(CN(C)C[C@@H]2Oc3ccc(NS(=O)(=O)c4c(C)noc4C)cc3CC(=O)N([C@@H](C)CO)C[C@@H]2C)cc1	7[16.7 µM]

Env fusion inh: what is marked active above
SMILES	Env fusion inh
O=C(Nc1cccc(F)c1)N[C@H]1CC[C@@H](CCNS(=O)(=O)c2cccc(Cl)c2)O[C@H]1CO	96*[16.7 µM]
